# Bioassay records as filed in PubChem BioAssay.
# LT uptake inh: inhibitors of anthrax lethal toxin internalization | AID 912 | hit rate 0.67% among 70,000 | Cells, anthrax lethal toxin internalization, FRET ratio (460/530) | Potency, µM (highest dose often 40 µM), inactives show top-dose activity change, negative = inhibition, hits mostly inhibitors; active = well fitted falling ratio curve with the 530 nm signal flat; inconclusive = other ratio curves, or a change in one channel alone; inactive = flat curves in the ratio and both channels; the % refers to the ratio; also: % is scaled to controls: 0 for no effect and ±100 for the full control effect; nearly all actives have a fitted effect of over 50% in size; tested in ME-180 cells; beta-lactamase reporter
# Prx2 Sm inh: Schistosoma mansoni Prx2 inhibition | S. mansoni Prx2 activity coupled to TGR/GSH (TGR is thioredoxin glutathione reductase), NADPH fluorescence loss, qHTS; some inactives read as strong as hits | Potency, µM | hit rate 0.07% among 65,000 | AID 448; active means full or partial inhibition curve with a strong effect at the top dose; inconclusive means weaker partial or single-point curve; inactive means no accepted curve; also: series up to 57 µM; many of its hits are not listed in these tables
#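 Prx2 inhibition was measured as reduced NADPH consumption when electrons flowed from NADPH through TGR and glutathione to Prx2 and H2O2. Plates were read kinetically over 8 min; enzyme reagents were held at 4 deg C during dispensing.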
# Active calls of the source: *; ? = inconclusive; · = no result given; & = joins results of further samples; [ ] = dose if it differs, or a comment. Potency is read from the fitted curve at half-maximal effect.
mol	LT uptake inh	Prx2 Sm inh
Cc1cccc(OCc2nnc3n2CCCCC3)c1	-1.0%	>57
O=C(Nc1c(F)cc(F)cc1Br)c1cc(-c2ccco2)on1	-18.8%	>57
COc1ccc(S(=O)(=O)N2Cc3ccccc3CC2C(=O)N2CCOCC2)cc1OC (stereo not given)	10.2%	>57
CC(=O)N1C(=O)N(C(C)=O)C2C1N(C(C)=O)C(=O)N2C(C)=O (stereo not given)	-18.1%	>57
N[C@@H](C(=O)O)[C@H](CC(=O)O)c1ccc(Cl)cc1	-3.7%	>57
C=CCNS(=O)(=O)c1ccc(OCC(=O)OC)cc1	·	>57
O=C(c1noc2c1CCc1ccccc1-2)N1CCOCC1	10.1%	>57
Nc1nc2c(c(=O)[nH]1)CN(CCCN1CCOCC1)CN2	?	?
O=C(CSc1nnc(-c2ccc(Br)cc2)o1)Nc1cccc2ccccc12	-3.8%	>57
CC(=O)N(Cc1cccnc1)Cc1cc2ccccc2[nH]c1=O	10.9%	>57
CN1CCN(Cc2nc3c(c(=O)[nH]c(=O)n3C)n2Cc2c(F)cccc2Cl)CC1	6.3%	>57
Cc1ccc(CS(=O)(=O)CCC(=O)N2CCC3(CC2)OCCO3)cc1	2.6%	>57
CCCC(=O)Nc1nc2ccc(S(N)(=O)=O)cc2s1	0.1%	>57
O=C1C2CCCN2C(c2ccc(Cl)c(Cl)c2)N1c1ccccn1 (stereo not given)	-0.3%	·
Cc1c(O)ccc(C(=O)CN2C(=O)c3ccccc3C2=O)c1O	?	·
COCCNc1ncnc2c1cnn2Cc1ccc(Cl)cc1	-4.7%	>57
O=C1C2=C(Nc3ccccc3SC2c2ccco2)c2ccccc21 (stereo not given)	?	·
CC(C)(O)C#Cc1ccc(C(=O)NCc2cccs2)s1	1.8%	>57
O=C(c1cc2nc(-c3ccco3)cc(C(F)(F)F)n2n1)N1CCCCCC1	-17.3%	·
CCN(CC)C(=O)COc1ccc2oc(C)c(C(=O)OC)c2c1	3.5%	>57
CC1N(C)c2cc(NC(=O)c3ccco3)ccc2C1(C)C (stereo not given)	-3.1%	>57
O=C(C1CCN(c2nnc(-n3cccc3)s2)CC1)N1CCOCC1	-3.8%	>57
CC(C)(C)c1cc(O)c(C(C)(C)C)cc1O	?	>57
COc1ccc(-c2nc3cnc(Oc4ccccc4)nc3n(CCC#N)c2=O)cc1	?	>11.4
Cc1ccc2ccccc2c1COC(=O)c1nonc1N	-8.7%	>57
O=C(CN1C(=O)CN=C(c2ccccc2)c2ccccc21)NCc1ccco1	7.4%	>57
Cc1cc(NC(=O)c2cccnc2)ccc1NC(=O)c1ccco1	-0.8%	>57
COc1cc(-c2nnc(SCc3c(F)cccc3Cl)o2)cc(OC)c1OC	?	·
Cc1ccc(-n2c3c(cc(C(=O)NCc4ccco4)c2=O)C(=O)CC(C)(C)C3)cc1	?	>57
CCOC(=O)N1CCN(C(=O)C2COc3ccccc3O2)CC1 (stereo not given)	10.1%	·
CCOc1ccccc1-n1c(SCC(=O)NC)nnc1-c1ccco1	-10.9%	>57
Cn1cccc1C(C(=O)NC1CCCCC1)N(C(=O)Cc1cccs1)c1ccc2c(c1)OCO2 (stereo not given)	-3.0%	>57
CC(=O)/C(=N\N=C(N)N)c1ccccc1	-8.7%[8 µM]	>57
CC(C)C(=O)Nc1ccc(C(=O)NC2CCSC2=O)cc1 (stereo not given)	4.5%	>57
CC1CCN(C(=O)CSc2nnc(Cc3cc(=O)[nH]c(=O)[nH]3)n2-c2ccc(Cl)cc2)CC1	-2.4%	>57
CCOC(=O)OCC1OC(C#Cc2ccccc2)C=CC1OC(=O)OCC (stereo not given)	?	·
O=c1nc2n(c3cc(Cl)c(S(=O)(=O)N4CCOCC4)cc13)CCCCC2	-2.1%	>57
CCn1c(=O)n(CC)c2cc(S(N)(=O)=O)c(C)cc21	-2.9%	>57
Cn1cc(CC(=O)N2CCN(c3ccc(Cl)cc3)CC2)c2ccccc21	-2.4%	>57
O=C(CN1C(=O)c2ccccc2S1(=O)=O)Nc1ccccc1C(=O)NCc1ccco1	-2.9%	>57
CC(C)(C)n1cnc2cc(NS(=O)(=O)c3ccccc3)ccc21	-7.2%	>57
COc1ccc(OC)c(-n2c(SCC(=O)N3CCc4ccccc43)nc3c(c2=O)SCC3)c1	?	>57
CN1C(=O)CSc2ccc(C(=O)O)cc21	-0.5%	>57
CN(Cc1ccccc1)C(=O)COC(=O)c1ccc2c(c1)OCO2	-8.5%	>57
COc1ccc(CC(=O)Nc2ccc(S(=O)(=O)NCC3CCCO3)cc2)cc1 (stereo not given)	-7.6%	>57
COC(=O)N(C)c1nc2ccccc2s1	11.8%	>57
O=C(Nc1ccc(-n2nncc2-c2ccco2)cc1)c1cc2ccccc2oc1=O	-16.1%	>57
Cc1ccc2c(c1)-c1ccccc1S(=O)(=O)N2	-9.9%	>57
Cc1ccc(C)c(N2CCN(C(=O)c3cc4ccccc4oc3=O)CC2)c1	-7.7%	>57
O=C(CN1C(=O)COc2ccccc21)N(Cc1cccnc1)Cc1cccc(F)c1	-18.5%	>57
Cc1nc2cnc(N3CCOCC3)nc2n(CCc2ccccc2)c1=O	-7.7%	>57
NC1=NC2=C(CCCC2)C2(CCCCC2)S1	-25.1%	>57
Cc1ccc(CNC(=O)c2cc3c(=O)n(C)c4ccccc4c3n2C)o1	-21.6%	·
COc1ccc(C(=O)CSc2nnc(-c3ccco3)n2CC2CCCO2)cc1 (stereo not given)	?	>57
CNC(=O)CSc1nnnn1CCCOC	8.6%	>57
Cc1n[nH]c(C)c1N1C(=O)c2cccc3cc(Br)cc(c23)C1=O	?	·
O=C(Nc1cccc(F)c1)N1CCC2(CC1)CCN(C(=O)Oc1ccccc1)CC2	7.8%	>57
COCCn1c(SCCCc2ccccc2)nc2c1c(=O)[nH]c(=O)n2C	-0.1%	>57
CCc1nnc(NC(=O)c2ccc(S(=O)(=O)NC3CCCCC3)cc2)s1	5.6%	>57
NC(=O)C1CCN(C(=O)C23CC4CC(CC(C4)C2)C3)CC1	3.5%	>57

# Additional structures follow:
mol	LT uptake inh	Prx2 Sm inh
COC(=O)n1c(=O)oc2cc(S(=O)(=O)N3CCOCC3)ccc21	-3.1%	>57
CCCc1ncc(C(=O)c2ccc(OC)cc2)n1C	·	>57
CCCc1nc(SCC(=O)c2ccc(OC)cc2)c2c(=O)n(C)c(=O)n(C)c2n1	-4.2%	>57
CCc1cc2c(cc(C(=O)O)n2C)s1	?	>57
CC(C)n1c(SCC(=O)Nc2ccc3c(c2)OCO3)nc2c1c(=O)n(C)c(=O)n2C	-8.7%	>57
CCOC(=O)CSc1nnc(-c2ccc(OC)cc2OC)o1	?	>57
CC(=O)Nc1ccc(S(=O)(=O)N[C@H](C(=O)O)C(C)C)cc1	-8.4%	>57
CN=C(SCc1cc2c(cc1Cl)OCO2)c1c(O)n(C)c(=O)n(C)c1=O	?	>57
COc1ccc2c(c1)CCc1c(C(=O)NC3CCCCC3)noc1-2	9.9%	>57
COCCn1c(=O)c(-c2cccc(C#N)c2)nc2cnc(Nc3ccccc3)nc21	?	>57
COc1[nH]c2ccc(F)cc2c1C(=O)OCC1CCN(CCNS(C)(=O)=O)CC1	5.5%&16.7%	>57&>57
CCOC(=O)C1C(=O)CC(=O)CC1CC(C)SCC (stereo not given)	-24.2%	>57

# Record cards, as listed above. Order of screens: LT uptake inh | Prx2 Sm inh
# CCCc1nc(SCC(=O)c2ccc(OC)cc2)c2c(=O)n(C)c(=O)n(C)c2n1 across the screens: -4.2% | >57
# CCOC(=O)C1C(=O)CC(=O)CC1CC(C)SCC (stereo not given) across the screens: -24.2% | >57

# Continuation.
mol	LT uptake inh	Prx2 Sm inh
O=C(CSc1nccn1-c1cccc(Cl)c1)NC1CCCC1	3.3%	>57
CCNC(=O)[C@@H]1O[C@@H](n2cnc3c(N)ncnc32)[C@H](O)[C@H]1O	-2.0%	>57
COc1ccc(Cl)cc1C(=O)Nc1ccc(NC(=O)c2ccco2)cc1	8.3%	·
CC1CCC2C(=O)N3C(CCC(C)C3c3ccccc3Br)C(=O)N2C1c1ccc(C#CCN(C)C)cc1 (stereo not given)	-11.1%[8 µM]	·
Fc1ccc(-c2nnc3ccc(N4CCCC4)nn23)cc1	-7.6%	>57
CCN(CC)CCN1C(=O)C(=O)/C(=C(/O)c2c(C)[nH]c(C(=O)OC)c2C)C1c1cccnc1 (stereo not given)	12.2%	>57
Cc1[nH]nc(N=CC2=C(O)CC(c3ccco3)CC2=O)c1-c1ccccc1 (stereo not given)	-6.5%	>57
COCC(=O)N(Cc1cc2ccccc2[nH]c1=O)c1ccc(OC)cc1	-16.9%	>57
COc1cccc(-n2nc(C(=O)N3CCC4(CC3)OCCO4)c3ccccc3c2=O)c1	-15.1%	>57
CCN1CCN(C(=O)c2ccc3c(=O)n(C4CCCC4)c(=S)[nH]c3c2)CC1	·	>57
COc1ccc(OC)c(C2C=C(c3ccc(C)c(C)c3)Nc3nnnn32)c1 (stereo not given)	-2.2%	>57
Cn1c(=O)c2c(nc(CN3CCc4ccccc4C3)n2Cc2ccc(Cl)cc2)n(C)c1=O	-12.6%	>57
O=C(NCc1cccs1)C1CCN(c2ccc(S(=O)(=O)N3CCOCC3)cc2Cl)CC1	?	>57
Cc1cccc2cc(C#N)c(NCCNS(=O)(=O)c3ccc4c(c3)OCCO4)nc12	10.0%	>57
CCCCNC(=O)Nc1cnn(CC)c1C(N)=O	·	>57
Cc1cnc(C(=O)OCC(=O)Nc2ccc(Cl)cc2)cn1	1.7%	>57
COc1ccc(C2C3=C(CCCC3=O)Nc3nc4ccccc4n32)cc1OC (stereo not given)	8.3%	>57
COc1ccc(-c2nnnn2-c2ccccc2OC)cc1	-1.0%	>57
Cc1ccc(C)c(N(C(=O)Cn2nnc(-c3cccs3)n2)C(C(=O)NC2CC2)c2ccc(C)o2)c1 (stereo not given)	1.4%	>57
CC1=C(C(=O)OC2CCCCC2)C(c2ccco2)n2ncnc2N1 (stereo not given)	19.8%	>57
CN(C)c1nc(Oc2ccc(/C=N/O)cc2)nc(N(C)C)n1	-2.2%	·
CN1C(=O)C(C2c3ccccc3C(=O)N2Cc2ccccc2)C(=O)N(C)C1=O (stereo not given)	-17.4%	>57
Cn1c(=O)oc2cc(S(=O)(=O)Nc3cccc(C(=O)O)c3)ccc21	-4.3%	>57
Cn1c(-c2ccc(C(C)(C)C)cc2)n[nH]c1=S	2.4%	>57
COC(=O)C1CCCN1C(C(=O)NC1CCCCC1)c1ccc(Cl)cc1 (stereo not given)	-6.5%	>57
N#Cc1nc(-c2ccccc2Cl)oc1N1CCOCC1	-11.2%	>57
COc1ccc(/C=N/c2nc3ccccc3n2C)cc1OC	-0.5%	>57
Cc1cc(=O)oc2cc(OCC(=O)N3CCCC(C)C3)ccc12 (stereo not given)	-8.2%	>57
CCCC(=O)N1CCc2cc(-c3nc(N)sc3C)ccc21	8.5%	>57
CCC(C(=O)O)n1c(C(F)(F)F)nc2ccccc21 (stereo not given)	-5.8%	>57
COCCSc1nnc(NC(=O)Cc2cccs2)s1	-4.2%	>57
Cc1cnc(C(=O)OCC(=O)N2CCc3ccccc3C2)cn1	1.6%	>57
Cn1c(=O)c2c(SCC(N)=O)nc(CC(C)(C)C)nc2n(C)c1=O	4.9%	>57
Cc1ccc2c(c1)CC1(CN2C)C(=O)NC(=O)N(c2ccc(C)c(C)c2)C1=O (stereo not given)	-13.5%	>57
COc1ccc(-n2c(=O)c3ccccc3n(CC(=O)Nc3cc(C)on3)c2=O)cc1OC	-7.7%	>57
CCOC(=O)C1=C(C)OC(N)=C(C#N)C1c1cc(OC)c2c(c1)OCO2 (stereo not given)	-1.6%	>57
N[C@]1(C(=O)O)CC[C@@H](C(=O)O)C1	-0.5%	>57
Cc1ccc(C)c(NC(=O)c2ccc3c(c2)N(Cc2ccc(F)cc2)C(=O)CS3=O)c1 (stereo not given)	-8.7%	>57
COC(=O)c1sc(NC(=O)c2csc3c2CCCC3)nc1C	-17.8%	>57
COc1cc2ccc(=O)oc2c(O)c1O	?	>57
O=C(O)CN1CCN(Cc2ccccc2)C1=O	-5.9%	>57
CCOC(=O)C(NC(=O)CC(C)C)(Nc1cc(C)on1)C(F)(F)F (stereo not given)	-4.5%	>57
C[N+]1(C)CCc2cc3c(cc2[C@@H]1[C@@H]1OC(=O)c2c1ccc1c2OCO1)OCO3	6.6%	>57
COc1ccccc1-c1c(NC(=O)c2ccco2)n(-c2ccccc2)nc(C)c1=O	·	>57
O=C(CSc1nnc(Cn2c(=O)sc3ccccc32)n1-c1ccccc1)Nc1nccs1	21.9%	>57
CC1CCCC(N2CCN(C(=O)c3ccc(F)cc3)CC2)C1 (stereo not given)	-8.0%	>57
Cn1c(=O)c2nc(NCc3ccccc3)cnc2n(C)c1=O	?	>57
O=C(OCC(=O)N1CCOCC1)c1ccc2c(c1)OCCO2	17.5%	>57

# Only part of the results is shown; the hit share may differ from the screen's.
